ALR H2O2 inh: human ALR oxidase inhibition via reduced H2O2 | 290,000 compounds, 3.8% hits | purified ALR, DTT oxidation, H2O2 HRP-luminol luminescence | P55789 | inhibition, % (no concentration beside the values);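 active = mean and each replicate at 75% or more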;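 note: stock transfer was 7.5 nL into about 7.5 µL; 0% = neutral wells and 100% = wells with inactivated enzyme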
E coli growth: blocks Escherichia coli growth; OD600, 23 h; active compounds read low; OD600 absorbance (concentration not given with the values); 330,000 compounds, 0.21% hits; AID 1053175;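 active = OD600 absorbance below the run mean of sample wells minus 3.6 SD, in any replicate, cut at about 0.56 in these data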;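 note: stock transfer was 300 nL into about 60 µL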
rRNA inh HTS: inhibitors of bacterial rRNA selective over humanized ribosomes; E. coli WT GFP vs humanized-ribosome RFP mutants, fluorescence, 24 h; active compounds read low; DMSO median 0, no signal -100; AID 720706; 350,000 compounds, 1.6% hits; GFP signal change (wild-type ribosome), % (test concentration not listed);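 active = significant combined selectivity score with lowered wild-type GFP, culture density cut under 30%, mutant RFP and density less affected; inactive = any of these conditions unmet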; note: one replicate is shown; some compounds called inactive have numbers as strong as hits
UCH37 inh: inhibitors of human deubiquitinating enzyme UCH37; purified proteasome/UCH37, Ub-AMC cleavage fluorescence; inhibition, % (concentration not given with the values); 330,000 compounds, 0.33% hits;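 active = mean of two replicates above 20%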;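 note: 0% = compound-free wells with enzyme and 100% = wells lacking proteasome; stock transfer was 100 nL into about 20 µL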
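System: Proteasome-associated human UCH37 deubiquitinase; Input: 0.15 nM proteasome in added enzyme buffer; Also added: Ub-AMC substrate from 1 µM stock; Incubation: 30 min compound-proteasome preincubation then 25 min substrate reaction, room temperature; Detection: fluorescence, ex 355 nm, em 460 nm; Read-out: % inhibition of Ub-AMC cleavage fluorescence; Benchmarks: no-proteasome and no-compound wells.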
B2AR ag: human beta-2 adrenergic receptor agonism by FAP; P07550; Am2.2-beta2AR cells, FAP receptor internalization, flow cytometry; reference of the scale not given here; response, % (test concentration not listed); 340,000 compounds, 0.43% hits; AID 504454;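 active = response above a set limit, near 3 SD of response in nonfluorescent compounds, cut at about 42% in these data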;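 note: stock transfer was 100 nL into about 11 µL; a reference agonist was the positive control; negative values mostly stem from fluorescent compounds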
Target sequence (P07550 whole entry, looked up): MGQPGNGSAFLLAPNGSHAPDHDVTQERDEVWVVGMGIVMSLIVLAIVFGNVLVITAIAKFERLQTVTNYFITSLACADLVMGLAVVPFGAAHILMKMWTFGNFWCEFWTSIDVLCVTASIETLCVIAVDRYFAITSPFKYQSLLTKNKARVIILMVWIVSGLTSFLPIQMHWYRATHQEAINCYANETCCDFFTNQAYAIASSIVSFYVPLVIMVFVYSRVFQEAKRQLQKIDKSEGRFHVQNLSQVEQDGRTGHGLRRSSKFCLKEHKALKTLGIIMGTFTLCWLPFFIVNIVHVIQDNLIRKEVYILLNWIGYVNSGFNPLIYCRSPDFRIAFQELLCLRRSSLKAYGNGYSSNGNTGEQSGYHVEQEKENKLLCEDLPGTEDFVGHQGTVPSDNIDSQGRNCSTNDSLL
HNF4A DNA FP: change in binding of human HNF4 alpha to DNA; P41235; HNF4a-FITC DNA binding, fluorescence polarization, 1 h; activity change, % at 10 µM; 360,000 compounds, 0.3% hits; in the data active = activity change above about 30%, passing the limit was not always enough;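 note: controls were the assay level and a saturating level of protein; the project sought stronger binding though the title names inhibitors; some compounds called inactive have numbers as strong as hits; positive values seem to mean higher polarization but the record does not say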
Target sequence (P41235 whole entry, looked up): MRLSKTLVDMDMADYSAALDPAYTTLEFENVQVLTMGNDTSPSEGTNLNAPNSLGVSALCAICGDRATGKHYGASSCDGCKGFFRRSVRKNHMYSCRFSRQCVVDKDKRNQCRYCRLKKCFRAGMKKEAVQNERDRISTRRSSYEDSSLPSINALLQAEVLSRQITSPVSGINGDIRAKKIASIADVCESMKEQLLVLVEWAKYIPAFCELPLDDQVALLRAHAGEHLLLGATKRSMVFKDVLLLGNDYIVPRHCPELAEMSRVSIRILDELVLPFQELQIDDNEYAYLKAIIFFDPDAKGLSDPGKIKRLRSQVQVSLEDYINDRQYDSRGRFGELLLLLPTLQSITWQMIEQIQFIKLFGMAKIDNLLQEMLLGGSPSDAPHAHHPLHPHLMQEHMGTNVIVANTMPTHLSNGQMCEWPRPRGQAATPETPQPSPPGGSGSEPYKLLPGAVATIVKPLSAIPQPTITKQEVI
FGF22 binding: FGF22 (human) thermal shift binding | recombinant FGF22 thermal shift, SYPRO orange fluorescence; percent of sucrose octasulfate shift, DMSO zero | calls only at 9.99 µM | 340,000 compounds, 1.5% hits | AID 651658;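 active = melting point raised past a set limit in the mean and every replicate; three in four hits are not shown here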
Target sequence (Q9HCT0 whole entry, looked up): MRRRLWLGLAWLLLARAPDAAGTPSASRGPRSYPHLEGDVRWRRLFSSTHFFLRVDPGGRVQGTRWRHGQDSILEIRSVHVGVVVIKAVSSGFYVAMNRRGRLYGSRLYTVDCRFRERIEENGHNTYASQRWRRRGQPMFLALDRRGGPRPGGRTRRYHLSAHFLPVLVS
rRNA inh HTS OD600: further read-out of rRNA inh HTS, marked with its call; OD600 change, %; measured here: OD600 growth;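 optical density of the mix in the first replicate; 0 = DMSO median and -100 = no signal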
rRNA inh HTS RFP: recorded beside rRNA inh HTS, whose call it bears; RFP signal change, %; measured here: RFP humanized mutant strains;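 first replicate; 0 = DMSO median and -100 = no signal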
Active calls of the source: *. The list is partial; count on the stated rates, not on these rows.

CCOc1c(C)cnc2c1c(=O)n(CC(=O)NCC1CCCO1)c(=O)n2C (stereo not drawn) was read as ALR H2O2 inh -11.1, E coli growth 0.716, rRNA inh HTS 7.9, UCH37 inh -3.5, B2AR ag -2.8, HNF4A DNA FP -2.1, FGF22 binding inactive, rRNA inh HTS OD600 5.5 and rRNA inh HTS RFP -0.1.
`CC(=O)Nc1ccnc(-c2cccnc2)n1` gave ALR H2O2 inh -5.5, E coli growth 0.699, rRNA inh HTS 13.8, UCH37 inh 4.6, B2AR ag -4.3, HNF4A DNA FP -3.4, FGF22 binding inactive, rRNA inh HTS OD600 12.1 and rRNA inh HTS RFP -0.7.
`CC(Oc1ccccc1)C(=O)N1CCc2ccccc2C1` (stereo not drawn) gave ALR H2O2 inh -1.2, E coli growth 0.663, rRNA inh HTS -8.4, UCH37 inh 5.4, B2AR ag -3.8, HNF4A DNA FP -4.3, FGF22 binding inactive, rRNA inh HTS OD600 -9.2 and rRNA inh HTS RFP -8.6.
`COC(=O)CN1C(=O)[C@H]2[C@@H](c3ccc(C)o3)N3C(=O)CN(Cc4ccccc4)C(=O)[C@@]3(Cc3ccccc3)[C@H]2C1=O` gave ALR H2O2 inh 1.9, E coli growth 0.754, UCH37 inh 5.9, B2AR ag 25.0, HNF4A DNA FP 6.6 and FGF22 binding inactive.
For COC(=O)CCCC1=CC2=C(c3ccccc3)C(=O)C(C)(OC(=O)C3CCCC3)C(=O)C2=CN1CCN1CCOCC1 (stereo not drawn) the results were ALR H2O2 inh -17.8, E coli growth 0.678, rRNA inh HTS 4.3, UCH37 inh 0.3, B2AR ag -7.9, HNF4A DNA FP -1.2, FGF22 binding inactive, rRNA inh HTS OD600 2.0 and rRNA inh HTS RFP 5.5.
`CN1OC[C@@H]2CN(C(=O)Nc3ccccc3)[C@H](c3ccc(N4CCCCC4)cc3)C[C@@H]21` gave rRNA inh HTS 8.8, HNF4A DNA FP 1.2, FGF22 binding inactive, rRNA inh HTS OD600 5.5 and rRNA inh HTS RFP 9.7.
Screening CC1(C)Cc2c(cnn2-c2ccccc2)C(NC(=O)CCCN2CCCC2=O)C1 (stereo not drawn) returned ALR H2O2 inh 7.0, E coli growth 0.724, rRNA inh HTS 2.3, UCH37 inh 0.1, B2AR ag -5.7, HNF4A DNA FP 2.0, FGF22 binding inactive, rRNA inh HTS OD600 4.7 and rRNA inh HTS RFP -0.4.
Screening NC1=NC(c2ccc([N+](=O)[O-])cc2)N(c2ccc(F)cc2)C(N)=N1 (stereo not drawn) returned ALR H2O2 inh -1.5, E coli growth 0.644, UCH37 inh 4.3, B2AR ag 10.3, HNF4A DNA FP -0.3 and FGF22 binding inactive.
`N#Cc1ccc(CN2CCN(C(=O)c3cc(Cl)c4c(c3)OCCO4)CC2)cc1` gave ALR H2O2 inh -0.4, E coli growth 0.657, rRNA inh HTS -2.3, UCH37 inh -2.0, B2AR ag -4.9, HNF4A DNA FP -0.3, FGF22 binding inactive, rRNA inh HTS OD600 -0.2 and rRNA inh HTS RFP 0.9.
For CC(C)CCNC(=O)C(c1cccs1)N(CC1CCCO1)C(=O)Cn1nnc2ccccc21 (stereo not drawn) the results were ALR H2O2 inh 5.6, E coli growth 0.703, UCH37 inh -2.1, B2AR ag -0.1 and HNF4A DNA FP 2.1.
`CCC1CCCCN1CCCNC(=O)c1ccc(N2CCCC2=O)cc1` (stereo not drawn) gave ALR H2O2 inh -1.8, E coli growth 0.638, rRNA inh HTS 12.4, UCH37 inh 0.1, B2AR ag 6.3, HNF4A DNA FP -3.0, FGF22 binding inactive, rRNA inh HTS OD600 12.2 and rRNA inh HTS RFP -0.4.
CCOC(=O)c1cnc(SC)nc1Sc1cc(Cl)ccc1Cl was read as ALR H2O2 inh -0.2, E coli growth 0.793, UCH37 inh 3.7, B2AR ag 6.2 and HNF4A DNA FP 2.8.
Fc1ccc(C2CC(c3ccccc3)n3ncnc3N2)cc1 (stereo not drawn) was read as ALR H2O2 inh -12.5, E coli growth 0.754, UCH37 inh 2.5, B2AR ag 4.8 and HNF4A DNA FP 0.1.
CCN1CCN(C2CCCCC2NS(=O)(=O)c2ccccc2)CC1 (stereo not drawn) was read as ALR H2O2 inh -2.7, E coli growth 0.651, rRNA inh HTS 5.0, UCH37 inh 0.7, B2AR ag 2.6, HNF4A DNA FP -1.7, FGF22 binding inactive, rRNA inh HTS OD600 9.3 and rRNA inh HTS RFP 0.6.
`COc1ccc(N(C)S(=O)(=O)c2cccc(C(=O)N3CCN(S(=O)(=O)c4ccc(C)cc4)CC3)c2)cc1` gave ALR H2O2 inh -16.7, E coli growth 0.73, rRNA inh HTS -12.3, UCH37 inh 3.0, B2AR ag 10.7, HNF4A DNA FP -0.4, FGF22 binding inactive, rRNA inh HTS OD600 -14.4 and rRNA inh HTS RFP 5.0.
For CCOC(=O)c1c(NC(=O)CN2CCC(C)CC2)sc(C)c1C the results were ALR H2O2 inh -7.9, E coli growth 0.692, rRNA inh HTS -21.2*, UCH37 inh 0.2, B2AR ag -1.3, HNF4A DNA FP 1.1, FGF22 binding inactive, rRNA inh HTS OD600 16.0* and rRNA inh HTS RFP 0.9*.
NC(=O)c1nn(-c2ccccc2)nc1N was read as ALR H2O2 inh 0.7, E coli growth 0.702, rRNA inh HTS 5.5, UCH37 inh -290.3, B2AR ag 0.8, HNF4A DNA FP -0.1, rRNA inh HTS OD600 8.5 and rRNA inh HTS RFP -4.1.
`COc1ccccc1CN(Cc1nc2ccccc2c(=O)[nH]1)C(=O)Nc1ccccc1C` gave ALR H2O2 inh 8.0, E coli growth 0.691, UCH37 inh -0.8, B2AR ag 27.5 and HNF4A DNA FP -0.2.
For Cc1ccc(/C=N/NC(=O)CSc2nc3ccccc3o2)cc1 the results were ALR H2O2 inh -3.1, B2AR ag -6.6 and HNF4A DNA FP 1.1.
CCn1c(CSc2nnc(-c3ccncc3)n2C)nc2cc(C(=O)O)ccc21 was read as ALR H2O2 inh -7.4, E coli growth 0.721, rRNA inh HTS 4.0, UCH37 inh -4.2, B2AR ag 4.5, HNF4A DNA FP -5.7, FGF22 binding inactive, rRNA inh HTS OD600 -0.1 and rRNA inh HTS RFP 34.1.

Reprinted from the part before: 2 entries, then new ones.
For Cc1ccc(/C=N/NC(=O)CSc2nc3ccccc3o2)cc1 the results were ALR H2O2 inh -3.1, B2AR ag -6.6 and HNF4A DNA FP 1.1.
CCn1c(CSc2nnc(-c3ccncc3)n2C)nc2cc(C(=O)O)ccc21 was read as ALR H2O2 inh -7.4, E coli growth 0.721, rRNA inh HTS 4.0, UCH37 inh -4.2, B2AR ag 4.5, HNF4A DNA FP -5.7, FGF22 binding inactive, rRNA inh HTS OD600 -0.1 and rRNA inh HTS RFP 34.1.
Screening Cc1cc2cc(CNC(=O)c3ccc(Br)o3)ccc2n1C returned ALR H2O2 inh -41.0, E coli growth 0.732, rRNA inh HTS -3.5, UCH37 inh 5.8, B2AR ag 9.0, HNF4A DNA FP -10.6, FGF22 binding inactive, rRNA inh HTS OD600 -0.9 and rRNA inh HTS RFP 33.9.
CCN1CCCC1CNS(=O)(=O)c1cc(Br)cc2c1N(C(=O)C1CC1)CC2 (stereo not drawn) was read as E coli growth 0.7, UCH37 inh 3.5, B2AR ag 4.1 and HNF4A DNA FP 2.4.
`Cc1ccc2nc(NC3=NCN(Cc4cccnc4)CN3)nc(C)c2c1` gave E coli growth 0.69, UCH37 inh 2.7, B2AR ag 3.8 and HNF4A DNA FP -4.4.
CCOc1cccc(C2/C(=C(/O)c3ccc4c(c3)CC(C)O4)C(=O)C(=O)N2Cc2ccncc2)c1 (stereo not drawn) was read as ALR H2O2 inh 0.9, E coli growth 0.685, rRNA inh HTS 4.1, UCH37 inh 6.2, B2AR ag 3.5, HNF4A DNA FP -0.8, FGF22 binding inactive, rRNA inh HTS OD600 12.4 and rRNA inh HTS RFP -2.7.
For CC(=O)NC(=S)Nc1ccc(S(=O)(=O)Nc2nc(C)cc(C)n2)cc1 the results were ALR H2O2 inh 0.5, E coli growth 0.682, rRNA inh HTS 12.2, UCH37 inh 0.4, B2AR ag 5.0, HNF4A DNA FP -0.9, rRNA inh HTS OD600 6.1 and rRNA inh HTS RFP -3.3.
Screening COc1ccc(C(CC(=O)O)NC(=O)COc2ccccc2OC)cc1OC (stereo not drawn) returned ALR H2O2 inh 0.6, E coli growth 0.694, UCH37 inh 1.6, B2AR ag 0.5 and HNF4A DNA FP -1.0.
For O=C(Nc1cccc(Cl)c1)c1ccccc1 the results were ALR H2O2 inh -4.5, E coli growth 0.609, rRNA inh HTS 5.9, UCH37 inh -0.4, B2AR ag 1.2, HNF4A DNA FP -1.4, FGF22 binding inactive, rRNA inh HTS OD600 -4.1 and rRNA inh HTS RFP -3.3.
For CNC(=S)N1CCC(NC(=O)C(Cc2ccccc2)NC(C)=O)CC1 (stereo not drawn) the results were ALR H2O2 inh -0.2, E coli growth 0.605, rRNA inh HTS 12.1, UCH37 inh 0.5, B2AR ag -4.8, HNF4A DNA FP -1.1, FGF22 binding inactive, rRNA inh HTS OD600 19.8 and rRNA inh HTS RFP 2.6.
For O=C(Nc1ccc(Cl)c(S(=O)(=O)N2CCCC2)c1)c1cc(=O)[nH]c2ccccc12 the results were ALR H2O2 inh -1.4, E coli growth 0.7, rRNA inh HTS 0.6, UCH37 inh -1.8, B2AR ag 2.5, HNF4A DNA FP 2.0, FGF22 binding inactive, rRNA inh HTS OD600 11.5 and rRNA inh HTS RFP 4.2.
O=C(O)c1ccccc1/C=N/NC(=S)NCc1ccccc1 was read as ALR H2O2 inh 4.1, rRNA inh HTS 1.9, B2AR ag -8.9, HNF4A DNA FP -0.8, FGF22 binding inactive, rRNA inh HTS OD600 3.2 and rRNA inh HTS RFP -4.1.
O=C(NCc1ccc(Cl)cc1)C1CCC(CNc2c(N3CCCCC3)c(=O)c2=O)CC1 (stereo not drawn) was read as E coli growth 0.719, rRNA inh HTS 2.7, UCH37 inh 4.4, B2AR ag 0.1, HNF4A DNA FP -2.7, FGF22 binding inactive, rRNA inh HTS OD600 8.6 and rRNA inh HTS RFP -0.1.
For O=C(NCC(=O)N1CCCC1)c1ccc(Br)cc1 the results were ALR H2O2 inh -2.9, E coli growth 0.664, rRNA inh HTS 0.7, UCH37 inh 0.8, B2AR ag -2.2, HNF4A DNA FP 1.9, FGF22 binding inactive, rRNA inh HTS OD600 3.0 and rRNA inh HTS RFP -1.8.
Screening COc1ccc(Cl)cc1NC(=O)CN(C)C(=O)c1cc2c(s1)CCCC2 returned E coli growth 0.7, rRNA inh HTS -7.2, UCH37 inh 0.8, B2AR ag 4.9, HNF4A DNA FP -1.1, FGF22 binding inactive, rRNA inh HTS OD600 -43.9 and rRNA inh HTS RFP 2.7.
`COC(=O)C(CCSC)NS(=O)(=O)c1ccc(Cl)cc1` (stereo not drawn) gave ALR H2O2 inh -2.6, E coli growth 0.724, UCH37 inh 4.0, B2AR ag 3.7 and HNF4A DNA FP -4.5.
O=C(Nc1cc(-c2ccccc2)[nH]n1)c1ccc(Cl)cc1 was read as ALR H2O2 inh 14.7, E coli growth 0.659, rRNA inh HTS 1.7, UCH37 inh 4.2, B2AR ag 2.8, HNF4A DNA FP -2.8, FGF22 binding inactive, rRNA inh HTS OD600 1.6 and rRNA inh HTS RFP -0.7.
Screening O=C(CNS(=O)(=O)c1ccc(F)cc1)N1CCN(c2ccc(F)cc2)CC1 returned ALR H2O2 inh 15.1, E coli growth 0.646, UCH37 inh 2.5, B2AR ag 2.3 and HNF4A DNA FP -1.9.
Screening O=C(Nc1ccccc1)C(CCCCN1C(=O)c2ccccc2C1=O)N1C(=O)c2ccccc2C1=O (stereo not drawn) returned rRNA inh HTS -4.9, B2AR ag -11.0, HNF4A DNA FP -0.5, FGF22 binding inactive, rRNA inh HTS OD600 -3.5 and rRNA inh HTS RFP 5.1.

Compound activity: PubChem, several laboratories
